# Screening data (PubChem)
# HSD17B inhib: HSD17B dehydrogenase inhibition. recombinant HSD17B10, NADH fluorescence kinetic; many of its hits are not listed in these tables. actives 7.6% (n = 75,000). Q99714. Potency, µM (top dose mostly 57.1 µM), without a hit: at the highest dose activity change, negative = inhibition, hits mostly inhibitors; active means well fitted inhibition curve with a large enough effect; inconclusive means small, poorly fitted or top-dose-only effect; inactive means no such curve, though single readings can be large or run the other way;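 further: the protocol describes HADH2 (HSD17B10) and not the HSD17B4 of the title; nearly all actives have a fitted effect of over 70% in size; most hits overshoot -100% by far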
#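 His-tagged E. coli-expressed HADH2 at 20 nM in 100 mM Tris-HCl pH 9.0 with 0.01 % Tween-20, preincubated 15 min with compound at room temperature. Reaction with 1 mM NAD+ and 90 uM beta-hydroxybutyryl coenzyme A; NADH fluorescence (360/450 nm) read kinetically over 4 min, last minus first point.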
# Active calls of the source: *; ? = inconclusive; [ ] = another dose, or the depositor's remark. On the % scale 0 is the no-effect control and ±100 the full control effect; potency means the concentration at half of the fitted maximal effect. Not all compounds are listed, so the mix of outcomes need not match the whole.
cpd	SMILES	HSD17B inhib
1	CCOC(=O)Cn1c(CN2CCOCC2)nc2c1c(=O)n(C)c(=O)n2C	7%
2	CC(C)c1ccc(NC(=O)C2CCCCC2C(=O)O)cc1 (stereo not drawn)	5%
3	CC(C)(CO)NCc1ccccc1OCC(=O)Nc1ccccc1	12%
4	CCN(CC)CCN1C(=O)C(=O)/C(=C(/O)c2ccccc2)C1c1ccccc1F (stereo not drawn)	2%
5	CN(C)CCNc1ncnc2ccccc12	9%
6	CC(=O)Nc1nc(C)nc(C)c1C(C)=O	3%
7	Cc1ccccc1-c1ccc(=O)n(CC(=O)Nc2ccc(N3CCOCC3)cc2)n1	-18%
8	CCCCCN(C(=O)NC(=O)Nn1cnnc1)S(C)(=O)=O	-9%
9	CCn1c(C)c(C(C)=O)c(N2CCCCC2)nc1=S	2%
10	CN(C)C(=O)CN(C)S(=O)(=O)c1ccc(Cl)cc1	4%
11	CCN(CCO)C(=O)C12CCC(C)(C(=O)C1)C2(C)C (stereo not drawn)	9%
12	CN(C)c1ccc(/C(=N\O)C(F)(F)F)cc1	-15%
13	CCC(=O)N1CCc2cc(S(=O)(=O)NC(C(=O)NCc3ccccc3)C(C)C)ccc21 (stereo not drawn)	-5%
14	NCC(O)COCCC12CC3CC(CC(C3)C1)C2 (stereo not drawn)	-8%
15	CC(=O)Nc1ccc(S(=O)(=O)N2CCSCC2)cc1	0%
16	O=C(CN1CCN(S(=O)(=O)c2ccc(Br)cc2)CC1)Nc1ccccc1F	1%
17	CCn1cc(C(=O)OCc2ccccc2)c(=O)c2ccc(C)nc21	1%
18	Cn1c(-c2ccccc2)cccc1=O	-4%
19	CCOC(=O)N1CCC(NC(=O)CCS(=O)(=O)c2ccc3c(c2)CCN3C(=O)CC)CC1	10%
20	CCS(=O)(=O)Nc1c(C(=O)OC)[nH]c2ccccc12	-26%
21	CCOc1ccc(Cn2nnc(C(=O)NCc3ccc(OC)cc3)c2N)cc1	-22%
22	O=C(CCCN1C(=O)CSc2ncccc21)N1CCN(c2cccc(C(F)(F)F)c2)CC1	-6%
23	CC(NC(=O)c1cc(-c2ccc(O)cc2)on1)c1ccccc1 (stereo not drawn)	0%
24	C/C(Cl)=C/Cn1c(SCCN2CCOCC2)nc2c1c(=O)[nH]c(=O)n2C	4%
25	CCOC(=O)N1CCN(C(=O)c2ccc3c(=O)n(-c4ccc(OC)cc4)c(=S)[nH]c3c2)CC1	8%
26	Cc1cc(C(=O)N2CCN(CCc3ccccc3)CC2)no1	-6%
27	CC1Cc2nc(SCC(=O)OCc3ccccc3)n(C)c(=O)c2S1 (stereo not drawn)	?
28	CCCOc1ccc(C(=O)NCc2cccnc2)cc1	4%
29	O=C(c1csnn1)N1CCC2(CC1)CN(C(c1ccccc1)c1ccccc1)C2	0%
30	Cc1ccc(/C=c2\sc3nc(-c4ccccc4Br)nn3c2=O)o1	-5%
31	Cc1cc(OCC(=O)c2ccc(F)cc2)ccc1N1C(=O)CCC1=O	?
32	O=C(CN(Cc1ccc2c(c1)OCO2)C(=O)CNC(=O)c1ccco1)NC1CCCCC1	2%
33	O=C1CC(c2c[nH]c3ccccc23)C(=O)N1 (stereo not drawn)	13%
34	C[C@@H]1CN(CCCn2c3ccccc3c3ccccc32)C[C@H](C)N1	-13%
35	CCN(CC)CCCn1c(-c2ccccc2)nc2c(NCc3ccccc3)nc(C)nc21	20µM*
36	CC(C)(/C=N/O)/[N+]([O-])=C/c1ccccc1C(F)(F)F	6%
37	CC(=O)Nc1cccc2c1OCCO2	-4%
38	CC1(C)N=C(/C=N/O)CN1O	2%
39	Cc1ccc(N(CN2CCCC2=O)C(=O)c2ccc(OC(C)C)cc2)cc1	-2%
40	Cc1nn(Cc2ccc(F)cc2)c(C)c1NC(=O)c1cc(-c2ccc3c(c2)OCO3)on1	-6%
41	Cc1ccc(S(=O)(=O)NC2=NCN(C3CCN(Cc4ccccc4)CC3)CN2)cc1	2%
42	CO[C@H]1COC(=O)C/C=C\[C@H](C)[C@@H](NS(=O)(=O)c2ccc(C)cc2)COC(=O)CCC[C@@H]1C	-3%[11.4 µM]
43	Cc1cccc(C)c1N1C(=O)CC(N(O)c2ccccc2)C1=O (stereo not drawn)	-5%
44	COCCCn1c(SCC(=O)OC2CCCCC2)nnc1-c1cccs1	9%
45	O=C(CN1CCC(Cc2ccccc2)CC1)NC(=O)NCc1ccco1	-5%
46	COCC#Cc1ccc(C2NC(C(=O)O)CCC2C)cc1 (stereo not drawn)	-3%[11.4 µM]
47	Cc1c(C(=O)N2CCCCC2)sc(NC(=O)C(C)C)c1C#N	7%
48	COC(=O)CSC1=C(C#N)C(c2ccccc2OC)C(C(=O)OC)C(=O)N1 (stereo not drawn)	26%
49	CNC(=O)C1C2C=CC3(O2)C1C(=O)N(C1CC1)C3C(=O)NCc1ccc(OC)cc1 (stereo not drawn)	12%
50	COc1ccc(CCNC(=O)C2CCCN(S(C)(=O)=O)C2)cc1OC (stereo not drawn)	1%
51	COc1cccc(OCc2nnc(SCC(=O)NCc3ccco3)n2CCc2ccccc2)c1	?
52	COc1c(O)cccc1O	-4%
53	CCC12CN3CC(CC)(CN(C1)C31C(=O)N(C)c3ccc(C)cc31)C2=O (stereo not drawn)	3%
54	COc1ccc(C(=O)c2ccc(OC)c(OC)c2)cc1OC	-6%
55	CCOc1c(OC)cc(C2C(C#N)=C(N)Oc3n[nH]c(-c4ccncc4)c32)cc1OC (stereo not drawn)	5%
56	CC(=O)N1c2ccc(S(=O)(=O)CCC(=O)O)cc2CC1C (stereo not drawn)	2%
57	COc1ccc(C2c3c(oc4ccc(F)cc4c3=O)C(=O)N2CCN2CCOCC2)cc1OC (stereo not drawn)	-1%
58	O=C(O)c1ccc(F)c(S(=O)(=O)Nc2ccccc2)c1	3%
59	CCOc1ccc(N2CC(C(=O)Nc3cccc(C)c3C)CC2=O)cc1 (stereo not drawn)	9%
60	CCCc1[nH]nc2c1C(c1cn[nH]c1-c1ccc(F)cc1)C(C#N)=C(N)O2 (stereo not drawn)	-3%

# (continued)
cpd	SMILES	HSD17B inhib
61	CN(C)C(=O)N1CCC(C(=O)NCc2ccccc2)CC1	-10%
62	CC(=O)c1ccc(NC(=O)CSc2nnc(NC(=O)CN3CCOCC3)s2)cc1	-10%
63	CCOC(=O)c1c(C)n(C)c2c(C)cc(O)c(OC(=O)CC)c12	4%
64	Cc1c(N(C(=O)c2cc(=O)[nH]c3ccccc23)C(C)C)c(=O)n(-c2ccccc2)n1C	-3%
65	Cc1noc(C)c1-c1nccc(N(C)Cc2ccco2)n1	-25%
66	N[C@H](CO)Cc1cnc[nH]1	-14%
67	COc1ccccc1CN(C)C(=O)C1COc2ccccc2O1 (stereo not drawn)	1%
68	c1ccc(Cn2nnnc2C(c2cccnc2)N2CCN(C3CCCCC3)CC2)cc1 (stereo not drawn)	0%
69	CSC1=NCCN1C(=O)c1ccc(S(=O)(=O)N2CCCC2)cc1	3%
70	CC(=O)N1CCc2cc(S(=O)(=O)CCC(=O)NCc3ccc4c(c3)OCO4)ccc21	-4%
71	CC1=C(SCCC#N)S/C(=C2\SC(C)=C(SCCC#N)S2)S1	25µM*
72	Cc1cc2nn(-c3ccccc3)nc2cc1NC(=O)c1cccs1	?
73	Cc1nc2c(C(=O)N3CCCCC3)cnn2c(C)c1Cc1ccccc1F	32µM*
74	CC1CCCCN1C(=O)Cn1nnc(-c2cccnc2)n1 (stereo not drawn)	7%
75	N#Cc1cccc(NC(=O)N2CC[C@@]3(CCCN(C(=O)c4cccc(F)c4)C3)C2)c1	2%
76	Cc1onc(-c2ccccc2Cl)c1C(=O)Nc1ccc(S(=O)(=O)NCC2CCCO2)cc1 (stereo not drawn)	-20%
77	Cc1onc(-c2ccccc2)c1C(=O)Nc1cccc(C#N)c1	-3%
78	CCOc1ccc(NC(=O)CSc2nnc(C)n2CCCOC)cc1	0%
79	O=C(CC1SCCNC1=O)Nc1cccc(C(F)(F)F)c1 (stereo not drawn)	1%
80	COc1cc(NC(=O)c2cc3c(=O)n(C)c4ccccc4c3n2C)cc(OC)c1OC	25µM*
81	CN(CC(=O)N1CC(=O)N(CCc2ccccc2)C(=O)C1)S(=O)(=O)c1cccc2nsnc12	7%
82	CCC(C)(C(=O)NC1CCCC1)N(C(=O)CNC(C)=O)c1ccc(C)cc1 (stereo not drawn)	-3%
83	CCC1=C(OC(=O)N(CC)CC)N2C(=O)OC(=NCCOC)[C@]2(Cc2ccccc2)[C@H]2C1=CC[C@H]1C(=O)N(C)C(=O)[C@H]12	-1%
84	O=C1OCCN1CCN(CN1C(=O)CCC1=O)CN1C(=O)CCC1=O	5%
85	CCOc1ccccc1N1CCN(C(=O)Nc2ccc(F)c(Cl)c2)CC1	1%
86	Cc1ccc(OCCC(=O)OCC(=O)N2c3ccccc3CC2C)cc1 (stereo not drawn)	-18%
87	CCCCCCCCC	6%
88	COCC(C)N=Cc1c(O)[nH]c2ccccc12 (stereo not drawn)	-3%
89	CCOC(=O)c1ccc(N2C(=O)CC(C(=O)OC)=C2C)cc1	0%
90	O=c1c(-c2ccccc2)nc2cnc(Oc3ccccc3)nc2n1Cc1cccs1	25µM*

# Single entries from the results shown:
# For HSD17B inhib, compound 87 is listed with 6%
# For HSD17B inhib, compound 75 is listed with 2%

# Later entries:
cpd	SMILES	HSD17B inhib
91	Oc1ccc(Nc2nc(N3CCCC3)c3ccccc3n2)cc1	?
92	CC(C)OCC(O)CN (stereo not drawn)	0%
93	O=C1/C(=C/c2ccccc2)Oc2ccccc21	3%[11.4 µM]
94	O=C(CCS(=O)(=O)c1ccc(Cl)cc1)Oc1ccc2c(c1)OCO2	2%
95	Cc1cc(C)n(-c2ccc(Cl)c(C(=O)OCC(=O)N3CCCCC3C)n2)n1 (stereo not drawn)	7%
96	CCOC(=O)c1cnn(CCOC(=O)Cc2cccs2)c1NC(=O)Cc1cccs1	1%
97	CC(=O)NCCOc1nc(N(C)C)nc(N2CCOCC2)n1	4%
98	CC(C)CC1NC2(C(=O)N(C)c3ccccc32)C2C(=O)N(C(C)C)C(=O)C12 (stereo not drawn)	4%
99	COc1ccc(C(=O)/C=C/Nc2cc(C)on2)c(OC)c1	?
100	COc1ccccc1CNc1ccnc(-c2ccccc2Cl)n1	8%
101	COC(=O)c1ccc(NC(=O)CSc2nnc(-c3ccncc3)n2C)cc1	3%
102	CN1CCN(S(=O)(=O)c2ccc(NC(=O)c3cccs3)cc2)CC1	5%
103	c1csc(CNc2nc(-c3ccoc3)nc3ccccc23)c1	-16%
104	O=C(Cn1nnc2c(cnn2-c2ccccc2)c1=O)N1CCN(c2ccccc2F)CC1	1%
105	CCCCNC(=O)CC1N=C2c3ccccc3N=C(SCC(=O)Nc3ccc(OC)cc3)N2C1=O (stereo not drawn)	0%
106	O=C(Nc1ccc(Nc2ccc3c(c2)C(=O)c2ccccc2C3=O)c2c1C(=O)c1ccccc1C2=O)c1ccccc1	2%[11.4 µM]
107	CCNS(=O)(=O)c1ccc(NC(=O)Cn2nc(C(F)(F)F)cc2C)cc1	7%
108	COC(OC)[C@@H](C)[C@H](OC)[C@@H](C)[C@H](OC)c1ccccc1	-2%[11.4 µM]
109	CCOC(=O)c1c(N)nn(C(=O)C(C)C)c1-c1ccccc1	3%
110	Cc1ccc(-n2c(Cc3cccn3C)nnc2SCC(=O)Nc2ccc3c(c2)OCO3)cc1	-18%
111	CC(C)C(=O)N1CCN(c2ccc(NC(=O)c3ccc(Br)o3)cc2)CC1	-1%
112	CCN(CC)CCOC(=O)C1(c2ccc([N+](=O)[O-])cc2)CCCC1	2%
113	CCCC[C@@H]1C[C@H]1C(NC(=O)c1cccs1)c1ccc(Cl)cc1 (stereo partly drawn)	2%
114	CCOC(=O)OCC1OC(C#Cc2ccc(Br)cc2)C=CC1OC(=O)OCC (stereo not drawn)	-12%[11.4 µM]
115	CCOc1ccc2[nH]c(=O)c(CN(Cc3ccco3)C(=O)c3cccc(F)c3)cc2c1	20µM*
116	O=C(NCCc1ccccc1F)C1CCCN1S(=O)(=O)c1ccccc1 (stereo not drawn)	0%
117	CC1(C)CC(=O)C2=C(C1)N(CC1CCCO1)C(=O)NC2(C(F)(F)F)C(F)(F)F (stereo not drawn)	-5%
118	COc1ccc(NC2CC(=O)N(C(C)C)C2=O)cc1 (stereo not drawn)	0%

# Quoted at random: four records from the list, in no set order.
cpd	SMILES	HSD17B inhib
100	COc1ccccc1CNc1ccnc(-c2ccccc2Cl)n1	8%
25	CCOC(=O)N1CCN(C(=O)c2ccc3c(=O)n(-c4ccc(OC)cc4)c(=S)[nH]c3c2)CC1	8%
108	COC(OC)[C@@H](C)[C@H](OC)[C@@H](C)[C@H](OC)c1ccccc1	-2%[11.4 µM]
4	CCN(CC)CCN1C(=O)C(=O)/C(=C(/O)c2ccccc2)C1c1ccccc1F (stereo not drawn)	2%

# From compound 91 to 97, copied from above:
cpd	SMILES	HSD17B inhib
91	Oc1ccc(Nc2nc(N3CCCC3)c3ccccc3n2)cc1	?
92	CC(C)OCC(O)CN (stereo not drawn)	0%
93	O=C1/C(=C/c2ccccc2)Oc2ccccc21	3%[11.4 µM]
94	O=C(CCS(=O)(=O)c1ccc(Cl)cc1)Oc1ccc2c(c1)OCO2	2%
95	Cc1cc(C)n(-c2ccc(Cl)c(C(=O)OCC(=O)N3CCCCC3C)n2)n1 (stereo not drawn)	7%
96	CCOC(=O)c1cnn(CCOC(=O)Cc2cccs2)c1NC(=O)Cc1cccs1	1%
97	CC(=O)NCCOc1nc(N(C)C)nc(N2CCOCC2)n1	4%
